ClpP mod: qHTS Assay for Activators of ClpP | Potency, µM (series often up to 57.5 µM), without a hit: top-dose activity change, negative = active | ATP-dependent Clp protease proteolytic subunit (Bacillus subtilis (strain 168)), P80244 | actives 1.9% (n = 340,000) | purified B. subtilis ClpP, FRET peptide cleavage, 20 min | AID 651965, 2013; active = well fitted falling curve with a large enough effect; inconclusive = small, poorly fitted or top-dose-only effect; inactive = no such curve, though single readings can be large or run the other way; further: potency means the concentration at half of the fitted maximal effect; the source files actives as falling curves though it sought activators and does not explain the sign; nearly all actives have a fitted effect of over 65% in size; many hits overshoot -100%
Target sequence (P80244 whole entry, looked up): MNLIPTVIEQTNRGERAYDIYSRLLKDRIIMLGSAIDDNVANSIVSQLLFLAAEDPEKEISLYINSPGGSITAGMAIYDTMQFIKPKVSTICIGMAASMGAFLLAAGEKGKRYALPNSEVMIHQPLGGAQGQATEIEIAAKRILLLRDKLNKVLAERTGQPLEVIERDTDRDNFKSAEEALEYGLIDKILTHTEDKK
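ClpP 10 microg/mL final, pH 8 Tris/KCl buffer with BSA, glycerol, Tween-20; compound pinned in; FRET-FV substrate; RT 20 min; Ex320/Em430; ΔFRET vs ADEP 5.8 microM, DMSO, no enzyme.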
TRPML1 inh: qHTS for Inhibitors of the Human Mucolipin Transient Receptor Potential 1 (TRPML1). actives 0.02% (n = 390,000). TRPML1-inducible cells, Ca2+ dye fluorescence, FDSS; hits give low values; inhibition of EC80 agonist-evoked calcium signal. AID 624415, 2012. Mucolipin-1 (Homo sapiens), Q9GZU1. activity change, negative = inhibition, % (concentration not given with the values); in the data active means activity change below about -50%; inconclusive means about -30% to -50%; inactive means above about -30%;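 further: stimulus is agonist 54-4 at its EC80 concentration; on the % scale 0 is the no-effect control and ±100 the full control effect; compound concentration not given in the record; the text of the record puts the active cut at -80%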
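TRPML1-DL cells, Tet-induced overnight (~16 h, 37 °C) at 1,500 cells/well, were loaded with Ca8 no-wash dye plus quencher for 45-90 min at room temperature. Compounds were pinned during FDSS kinetic reading; agonist 54-4 at EC80 (4 uM final) then added.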
TRPV1 potentiator: HTS Assay for Compounds that Act as Potentiators of the Vanilloid Receptor 1 | potentiation, % at 8.33 µM | Transient receptor potential cation channel subfamily V member 1 (Homo sapiens), Q8NER1 | TRPV1-expressing cells, Fluo-8 calcium influx, capsaicin EC20 potentiation; host cell line not named in the record; control for the full effect not named in the record | actives 0.02% (n = 320,000); active means potentiation above 80%; inconclusive means 30% to 80%; inactive means below 30%; further: 0% is about no effect
Target sequence (Q8NER1 whole entry, looked up): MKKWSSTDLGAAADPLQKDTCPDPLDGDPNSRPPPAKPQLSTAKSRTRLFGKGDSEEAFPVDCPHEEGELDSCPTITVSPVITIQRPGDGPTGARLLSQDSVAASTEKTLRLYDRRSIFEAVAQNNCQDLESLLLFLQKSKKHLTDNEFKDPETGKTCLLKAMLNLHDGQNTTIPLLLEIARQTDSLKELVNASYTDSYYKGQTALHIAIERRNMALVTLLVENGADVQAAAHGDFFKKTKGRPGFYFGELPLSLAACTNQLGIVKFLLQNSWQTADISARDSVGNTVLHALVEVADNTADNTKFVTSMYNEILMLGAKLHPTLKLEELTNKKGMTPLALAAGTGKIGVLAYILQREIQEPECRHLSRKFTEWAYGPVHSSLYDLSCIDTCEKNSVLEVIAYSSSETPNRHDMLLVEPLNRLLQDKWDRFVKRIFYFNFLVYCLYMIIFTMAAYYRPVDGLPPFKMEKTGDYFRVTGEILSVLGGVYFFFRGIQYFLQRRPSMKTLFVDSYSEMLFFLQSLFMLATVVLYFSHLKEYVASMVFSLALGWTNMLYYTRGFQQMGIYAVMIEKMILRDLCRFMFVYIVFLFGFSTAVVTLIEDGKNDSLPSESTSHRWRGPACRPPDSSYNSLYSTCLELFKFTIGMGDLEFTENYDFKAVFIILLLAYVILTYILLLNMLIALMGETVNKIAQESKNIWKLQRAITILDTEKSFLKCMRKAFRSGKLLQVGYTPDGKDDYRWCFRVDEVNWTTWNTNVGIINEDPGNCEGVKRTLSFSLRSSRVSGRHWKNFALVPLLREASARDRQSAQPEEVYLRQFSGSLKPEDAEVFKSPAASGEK
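TRPV1-expressing cells were cultured overnight at 35.5C and loaded with Fluo-8 calcium dye for 40 to 90 min at room temperature. After a 10 s baseline, compound was added and calcium influx was read kinetically for 3 min (ex 480/em 520 nm).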
gsp antag: qHTS for Antagonists of gsp, the Etiologic Mutation Responsible for Fibrous Dysplasia/McCune-Albright Syndrome: qHTS. Potency, µM (series often up to 76.9 µM), for inactives: at the highest dose activity change, negative = inhibition, actives largely listed as inhibitors. actives 0.4% (n = 340,000). gsp-mutant cells, cAMP HTRF, 30 min; control for the full effect not named in the record; active = falling curve of any shape with a large fitted effect; inconclusive = falling curve, mostly with a smaller effect; inactive = flat or rising curve; cell line not stated here;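 further: intracellular cAMP measured with PDE inhibitor Ro 20-1724 present during compound exposure; potency means the concentration at half of the fitted maximal effect; on the % scale 0 is the no-effect control and ±100 the full control effect; nearly all actives have a fitted effect of over 65% in size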
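Cells, 2000/well, grown 16–24 h in DMEM 10% FBS with 0.5 mg/ml G418, then compounds plus […] (300 uM addition stock), 30 min at 37C. cAMP read by HTRF (cAMP-d2 and anti-cAMP antibody-K in lysis buffer) after 30 min RT.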
Menin-MLL FL inh: qHTS Assay for Inhibitors Targeting the Menin-MLL Interaction in MLL Related Leukemias: Competition With Fluorescein Labeled MLL-derived Peptide. Fluorescence polarization, fluorescein-MLL peptide displacement from menin. FP activity change, % at 61.4 µM. 290,000 tested, under 10 active; inconclusive = falling polarisation curve, or a change in total fluorescence; inactive = total fluorescence flat and polarisation flat or rising; no compound was filed as active; the % refers to the polarisation; negative = inhibition;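 further: % of control where 0% means no effect; inhibitors lower the polarisation; unlabelled MLL peptide was the positive control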
Sfp inh: qHTS Assay for Inhibitors of Bacillus subtilis Sfp phosphopantetheinyl transferase (PPTase). Biochemical Sfp PPTase activity, qHTS. Potency, µM, for inactives: max response, negative = inhibition, hits mostly inhibitors. actives 3.5% (n = 310,000); active means well fitted inhibition curve with a large enough effect; inconclusive means small, poorly fitted or top-dose-only effect, or another doubt; inactive means no such curve, though single readings can be large or run the other way;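 further: the enzyme is Sfp with the accession as filed and its product quenches rhodamine fluorescence; potency means the concentration at half of the fitted maximal effect; 0% = enzyme reaction without inhibitor and -100% = no enzyme wells; top concentration of the series not given in the record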
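With Hepes-Na pH 7.6 buffer containing 10 mM MgCl2, Sfp (15 nM) modified BHQ-2-YbbR (12.5 uM) using rhodamine-CoA (5 uM). Two reads 30 minutes apart at 525/598 nm yielded each well's rate.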
gsp agonist: qHTS for Agonist of gsp, the Etiologic Mutation Responsible for Fibrous Dysplasia/McCune-Albright Syndrome: qHTS; Potency, µM (series often up to 76.9 µM), for inactives: at the top dose activation (cAMP increase), hits mostly activators; AID 624287, 2012; actives 0.13% (n = 340,000); gsp mutant cells, cAMP HTRF, 30 min; control for the full effect not named in the record; active = well fitted activation curve with a large enough effect; inconclusive = small, poorly fitted or top-dose-only effect, or another doubt; inactive = no such curve, though single readings can be large or run the other way; cell line not stated here;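 further: phosphodiesterase inhibitor Ro 20-1724 added with compounds to block cAMP breakdown; potency means the concentration at half of the fitted maximal effect; nearly all actives have a fitted effect of over 60% in size; about a fifth of the inactives were tested at one dose only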
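Cells in DMEM/10% FBS with G418 were pretreated with compounds in DMSO plus […] (300 uM stock) for 30 min at 37C. cAMP was measured by HTRF (cAMP-d2 plus anti-cAMP antibody-K) after 30 min at room temperature.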
An asterisk follows results filed as active; u = inconclusive; x = no result given; & = joins results of further samples; [ ] = another dose, or the depositor's remark.

The line under a structure holds: ClpP mod, TRPML1 inh, TRPV1 potentiator, gsp antag, Menin-MLL FL inh, Sfp inh, gsp agonist
- CCn1c(SCC(=O)OCc2ccccc2)nnc1-c1ccco1
  -5.3%, 3, 2, -6%, 2.6, -9%, 2%
- O=C(O)C1CCCC[C@H]1C(=O)Nc1ncc([N+](=O)[O-])s1 (stereo not given in full)
  -3.5%, -16, 8, -3%, x, x, x
- Cc1oc(-c2ccccc2F)nc1CS(=O)CC(=O)NC1CCCCC1 (stereo not given)
  -1.4%, 1, u, 1%, 0.6, -2%, u
- COc1ccc(/C=N/NC(=O)c2ccccc2)cc1CN1CCN(c2ccc(F)cc2)CC1
  -3.3%, -5, -7, -3%, 0.4, 15%, -14%
- Cc1noc(C)c1COC(=O)c1cc(S(=O)(=O)N2CCOCC2)ccc1Cl
  -2.5%, 17, x, 2%, x, x, -5%[15.4 µM]
- CCc1ccc2[nH]c(=O)c(CN(Cc3nnnn3C3CCCC3)C3CCCCC3)cc2c1
  -16%, 2, -2, -12%, 2.2, -2%, -10%
- CCc1cc(OCCOCCN(C)C)ccc1Cl
  1.7%, -12, 10, 22%, 6.9, -14%, -30%[inhibitor]
- Cc1cc(C)nc(SCc2nnc(SCC(=O)OC3CCCCC3)o2)n1
  0.9%, -11, -21, -27%, -2.0, 3%, -15%
- CCn1cc(S(=O)(=O)NCc2ccccc2Br)cn1
  -2.1%, -8, 4, 14%, 3.0, 14%, -15%
- O=C(NC1CC2CCCC(C1)N2C(=O)N1CCCCC1)C1CCCCC1 (stereo not given)
  0.3%, 23, 3, 10%, 2.4, 10%, 7%
- Nc1cnn(C2OC(CO)C(O)C2O)c(=O)n1 (stereo not given)
  -0.3%, -8, -3, -9%, -2.5, 12%, -8%[15.4 µM]
- CCCN(CC(=O)Nc1ccccc1C)C(=O)c1oc2ccc(OCC)cc2c1C
  u, -2, -4, -13%, x, x, 7%[15.4 µM]
- Cc1cc(CNC(=O)Cn2nc(C)c([N+](=O)[O-])c2C)c2ccccc2n1
  1.3%, 11, -3, 16%, 0.0, 16%, -7%[15.4 µM]
- COc1ccccc1N1CCN(C(=O)NCc2ccc(Cl)cc2)CC1
  x, 4, -7, 0%, -6.1, 1%, -6%[15.4 µM]
- O=[N+]([O-])c1ccc(N2CCNCC2)cc1Sc1nc2ccccc2[nH]1
  -2.7%, 2, -12, 11%, 5.4, 0%, 14%
- Cc1cccc(NC(=O)CSc2nc3[nH]ncc3c(=O)[nH]2)c1C
  -0.7%, 0, -2, 13%, 4.8, 3%, -25%
- COc1ccc(C(C(=O)NCc2ccccc2)N(Cc2cccnc2)C(=O)c2snc(C(N)=O)c2N)cc1OC (stereo not given)
  -12%, -13, 9, -3%, x, 15%, 6%
- Cc1ccc(S(=O)(=O)N2CCCC2)cc1C(=O)NCCOc1ccccc1
  1.9%, 18, -11, 8%, x, x, u
- N/C(=N\OC(=O)C12CC3CC(CC(C3)C1)C2)c1ccccn1
  -0.6%, 6, -11, 17%, 1.3, 10%, -12%[15.4 µM]
- COc1ccc(/C=C(/NC(=O)c2ccccc2)C(=O)N2CCC(C)CC2)cc1
  x, 0, 1, 2%, x, 7%, -30%
- Cc1ccc([C@H]2C[C@@H](n3cc(-c4ccc(F)cc4)nn3)[C@H](O)CN2C(=O)C2CCCCC2)cc1
  -3.6%, 36, x, x, x, x, -32%
- CCOC(=O)N1CCN(C(=O)COc2ccc(S(=O)(=O)NCC(C)C)cc2C)CC1
  -1.2%, 8, -6, -2%, 3.8, 13%, 18%
- CSc1nnc(-c2ccccc2Cl)o1
  -0.7%, -1, -7, 5%, -2.1, 17%, -7%
- Cc1ccc(C)c(NC(=O)CN(C)C(=O)[C@@H](NC(N)=O)C(C)C)c1
  x, -11, 22, 4%, -1.3, 6%, -1%
- O=C(Nc1cccc(Br)c1)c1ccc2nc(N3C(=O)CCC3=O)sc2c1
  0.7%, 3, -1, 35µM*, 3.9, -5%, -24%
- O=C(/C=C/c1ccc(Br)cc1)NCCCn1ccnc1
  -1.5%, x, 0, 6%, -1.4, 5%, -11%
- Cc1ccc(S(=O)C(c2ccccc2)c2ccccc2)cc1 (stereo not given)
  0.8%, -4, x, 1%, x, x, -8%[15.4 µM]
- COc1cccc(N2C(=O)Nc3ccc(Br)cc3C2(O)C(=O)NCCCN(C)C)c1 (stereo not given)
  x, -17, 11, 13%, -3.8, 7%, 21%
- CN1CC2=Cc3ccccc3OC23Oc2ccccc2C=C3C1
  3.5µM*, 18, -12, 11%, u, 2%, -50%[inhibitor]
- CNC(=O)c1ccc(OCc2ccccc2)c(OC)c1
  -0.1%, 7, -13, 5%, -1.1, -2%, -10%
- COc1ccc(CCNC(=O)C2CCN(S(=O)(=O)c3ccc(C)cc3)CC2)cc1OC
  -1.3%, -17, 0, 1%, -5.6, 4%, -25%
- CN(C)/C=C1\C(=O)NN=C1c1ccccc1
  -0.1%, 16, 6, 12%, 1.7, 0%, u
- CCC(C)NC(=O)COC(=O)Cc1sc(N)nc1-c1ccc(C)cc1 (stereo not given)
  x, -23, -11, -2%, 12, -74%, 15%[15.4 µM]
- COc1ccc2c(c1)nc1n2CN(CC2CCCO2)CN1Cc1ccccc1 (stereo not given)
  x, x, -6, x, -0.3, 12%, x
- CSCC[C@H](N)C(=O)N1CCC(C(=O)N[C@H](C(=O)NCc2ccccc2F)C(C)C)CC1
  -0.6%, x, 6, 6%, -4.8, -1%, x
- CCOc1ccc(NC(=S)NNC(=S)Nc2cccc(C(F)(F)F)c2)cc1
  x, 12, -6, -4%, -2.1, 35µM*, 5%
- C/C(=N\NC(=O)CCC(=O)O)c1c(-c2ccccc2)c2cc(Br)ccc2[nH]c1=O
  -4.4%, x, -6, -24%, -0.5, 20%, u
- COCCSc1nnc(NC(=O)C2CCCO2)s1 (stereo not given)
  0.6%, 12, 9, 6%, 0.0, -1%, 3%
- C/C(N)=C(/C#N)C(=O)CSc1cc(C)c2cc(C)cc(C)c2n1
  x, -10, -22, 2%, 5.3, -12%, -11%[15.4 µM]
- CCOc1ncccc1C(=O)Nc1ccc(S(=O)(=O)Nc2nc(C)cc(C)n2)cc1
  0.7%, 7, 7, 29%, x, x, 10µM*
- O=C(O)C1CCC1C(=O)Nc1nc(-c2ccc(Cl)s2)cs1 (stereo not given)
  -0.5%, 7, -34, 1%, 1.2, 12%, -4%
- Cc1noc(NC(=O)c2ccc(Cl)cc2)c1Cl
  x, 11, -20, x, 0.2, 26%, 1%[15.4 µM]
- CC(C)CNC(=O)CN1C(=O)NC(Cc2c[nH]c3ccccc23)C1=O (stereo not given)
  2.1%, 7, 7, -1%, 0.7, 21%, -30%[inhibitor]
- O=C1C=C(NCc2ccc(Cl)cc2)CC(c2ccco2)C1 (stereo not given)
  1.2%, 8, 8, -5%, 3.2, 6%, -2%
- COc1ccc(S(=O)(=O)N(C)CC(=O)Nc2ccccc2OC)cc1
  -0.2%, 9, -14, 10%, 1.8, 13%, -17%
- Cn1cccc1/C=C1\SC(=O)N(CC(=O)Nc2ccc(F)cc2)C1=O
  x, -3, -7, -6%, 17, -24%, -2%
- Cc1c(C#N)c2ccccc2n1CC(=O)NCc1cccnc1
  0.1%, -1, 3, 3%, 1.4, 14%, 10%[15.4 µM]
- Nc1cc(S(=O)(=O)N2CCOCC2)ccc1Oc1ccc(F)cc1
  -1.2%, 8, -2, 14%, 0.3, 15%, 27%
- C/C(=N\NC(=O)CSc1nc2ccccc2c(=O)n1-c1ccccc1C)c1cccs1
  2.1%, 5, u, 4%, x, 1%, -38%[inhibitor]
- COc1ccc(C2=CCC3CCCCN3C2)cc1OC (stereo not given)
  -0.8%, 3, x, 8%, x, x, x
- Cc1oc(-c2cccs2)nc1CN1CCN(C2CCCC2)C(CCO)C1 (stereo not given)
  4.2%, 2, 1, 20%, 0.9, 11%, 5%
- COc1ccc(S(=O)(=O)NC(CC(=O)NCc2ccccc2OC)c2ccco2)cc1 (stereo not given)
  u, 18, 23, 3%, 5.3, 19%, 9%
- CCOC(=O)N1CCC(N2Cc3cccc(C(=O)Nc4ccc(N(CC)CC)cc4C)c3C2=O)CC1
  -0.1%, 2, -10, -15%, 4.5, -3%, -19%
- CCCCC1=CC2=CC(=O)C(C)(OC(=O)CC)C(=O)C2=CN1CCc1c[nH]c2ccccc12 (stereo not given)
  -5.9%, -4, u, 0%, 1.6[11.7 µM], 15%&18%, x
- O=C(Nc1ccc(Cl)cc1)Nc1nnc(Cc2ccc([N+](=O)[O-])cc2)s1
  -0.9%, 9, 10, -1%, 2.6, 8%, -50%[inhibitor]
- COc1cccc(CC2CC(=O)N(c3ccc4c(C)cc(=O)oc4c3)C2=O)c1 (stereo not given)
  45%, 2, 16, 6%, 0.9, -13%, -21%
- Cc1ccc(C(=O)Nc2cccc3cccnc23)cc1Br
  -2.4%, 20, x, -1%, x, x, -14%[15.4 µM]
- O=C(COC(=O)CNC(=O)c1ccco1)Nc1ccc(F)cc1
  25µM*, -12, 5, 2%, -5.2, 10%, -2%[15.4 µM]
- COc1cccc(-c2ccc(C#N)c(OC(=O)c3ccc(Cl)cc3)n2)c1
  -13%, -22, 5, -15%, 5.0, 10%, u
- CCOC(=O)c1c(NC(=O)CN2C(=O)c3ccccc3C2=O)sc(Cc2ccc3c(c2)OCO3)c1C
  1.1%, 15, -4, 7%, 1.3, 19%, u

The order is random; any-hit rate near 4.9%.
